# UCH37 inh: inhibitors of human deubiquitinating enzyme UCH37; AID 588478; purified proteasome/UCH37, Ub-AMC cleavage fluorescence; actives 0.33% (n = 330,000); inhibition, % (test concentration not listed); Q9Y5K5;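 active = mean of two replicates above 20%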;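 also: 0% = compound-free wells with enzyme and 100% = wells lacking proteasome; stock transfer was 100 nL into about 20 µL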
# Target sequence (Q9Y5K5 whole entry, looked up): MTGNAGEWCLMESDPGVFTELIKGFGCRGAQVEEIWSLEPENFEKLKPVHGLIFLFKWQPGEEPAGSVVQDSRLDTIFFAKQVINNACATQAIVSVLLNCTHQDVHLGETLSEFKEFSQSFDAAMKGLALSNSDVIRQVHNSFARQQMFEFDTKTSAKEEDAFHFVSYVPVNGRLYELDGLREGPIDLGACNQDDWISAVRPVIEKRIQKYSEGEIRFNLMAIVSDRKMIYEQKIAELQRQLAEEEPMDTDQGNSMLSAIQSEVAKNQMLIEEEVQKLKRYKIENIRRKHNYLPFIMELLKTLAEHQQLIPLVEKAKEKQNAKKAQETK
#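 Schedule: 30 min plus 25 min, room temperature / Material: human UCH37 within purified proteasomes / Technique: AMC fluorescence intensity at 355/460 nm / Buffer or medium: pH 7.4 Tris-HCl (50 mM) with ovalbumin, ATP-MgCl2, DTT / Controls: wells without proteasome as full block, compound-free enzyme plus substrate as uninhibited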
# MLL AF4-AF9 inh: MLL-AF4/AF9 protein interaction inhibition; AlphaScreen, biotin-AF4 peptide binding to FLAG-AF9; P42568; actives 0.47% (n = 350,000); inhibition, % at 10 µM;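 active = every replicate reaching a set inhibition limit, whatever the replicate mean, cut at about 25% in these data; inconclusive = mean inhibition reaches that limit but some replicates miss it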;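 also: 0% = plate neutral control median and 100% = total signal loss; the record names both 10 and 1 µM as test concentration; the first replicate is given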
# Target sequence (P42568 whole entry, looked up): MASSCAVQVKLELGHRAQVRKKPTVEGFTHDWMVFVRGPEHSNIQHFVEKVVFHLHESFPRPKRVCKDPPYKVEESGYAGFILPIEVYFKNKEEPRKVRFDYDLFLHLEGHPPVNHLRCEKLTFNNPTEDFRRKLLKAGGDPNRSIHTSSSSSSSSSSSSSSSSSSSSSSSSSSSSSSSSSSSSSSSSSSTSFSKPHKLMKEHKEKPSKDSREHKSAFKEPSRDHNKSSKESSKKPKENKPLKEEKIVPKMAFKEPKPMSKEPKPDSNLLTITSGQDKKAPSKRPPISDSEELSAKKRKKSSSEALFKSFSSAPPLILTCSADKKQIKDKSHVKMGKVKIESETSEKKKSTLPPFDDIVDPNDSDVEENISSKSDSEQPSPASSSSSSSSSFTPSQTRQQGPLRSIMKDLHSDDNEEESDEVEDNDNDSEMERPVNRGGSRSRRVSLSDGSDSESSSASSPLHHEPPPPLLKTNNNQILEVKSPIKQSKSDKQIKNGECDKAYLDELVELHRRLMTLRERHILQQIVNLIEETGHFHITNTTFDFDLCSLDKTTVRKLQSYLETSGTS
# Beta cell apopt: blocks beta cell apoptosis. INS-1E cytokine-induced death, ATP luminescence, 48 h; percent of positive-control rescue, neutral wells zero. protection from apoptosis, % (concentration not given with the values). actives 0.8% (n = 300,000);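 active = all replicates at 75% or more, or half of them and the mean; inconclusive = half reach 75% but not the mean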;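 also: 0% = cytokine-treated negative control wells and 100% = positive control rescue; higher means more ATP so stronger rescue from cytokine killing; wells of about 40 µL received 100 nL stock; the first replicate is given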
# A1 inh: inhibitors of the anti-apoptotic protein A1, read as caspase activation | MEF A1-2A-BIM cells, Caspase-Glo 3/7 luminescence, 3 h; percent of clofoctol response, vehicle zero | actives 0.066% (n = 330,000) | caspase activation, % (no concentration beside the values) | AID 2462;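 active = over half of replicate activation scores above 10%, or exactly half above 10 with the replicate mean above 10; inconclusive = replicate mean below 10 yet half the replicates above 10; inactive = over half of replicates below 10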;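 also: wells of about 30 µL received 50 nL stock; many hits fall short of the cut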
# E coli growth: blocks Escherichia coli growth; OD600, 23 h; stronger effect = lower value; OD600 absorbance (no concentration beside the values); actives 0.21% (n = 330,000); AID 1053175;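 active = OD600 absorbance below the run mean of sample wells minus 3.6 SD, in any replicate, cut at about 0.56 in these data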;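 also: stock transfer was 300 nL into about 60 µL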
# FGF22 binding: binders of recombinant human FGF22 by thermal shift. Q9HCT0. SYPRO orange fluorescence; percent of sucrose octasulfate shift, DMSO zero. calls only at 9.99 µM. actives 1.5% (n = 340,000). AID 651658;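 active = melting point raised past a set limit in the mean and every replicate; inconclusive = no clear call; three in four hits are not shown here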
# Target sequence (Q9HCT0 whole entry, looked up): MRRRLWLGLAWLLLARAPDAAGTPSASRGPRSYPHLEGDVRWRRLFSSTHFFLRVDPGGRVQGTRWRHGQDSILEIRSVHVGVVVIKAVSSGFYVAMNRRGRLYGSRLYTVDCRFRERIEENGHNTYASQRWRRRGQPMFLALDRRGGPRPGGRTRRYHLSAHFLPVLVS
# T cruzi inh: blocks replication of Trypanosoma cruzi | T. cruzi beta-gal in NIH3T3, luminescence, 90 h | inhibition, % (concentration not given with the values) | actives 1.4% (n = 300,000) | AID 1885;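 active = mean inhibition across valid replicates above about 55%, limit read from the data; inconclusive = mean below that limit but half or more replicates reach it; inactive = mean below it, under half of replicates reach it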;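 also: signal also drops with host cell toxicity which is not excluded here; 0% = plate median of DMSO wells and 100% = zero luminescence signal; higher percent means less beta-gal luminescence so fewer parasites; stock transfer was 50 nL into about 50 µL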
# rRNA inh HTS: inhibits bacterial ribosomal RNA function over humanized ribosomes; E. coli WT GFP vs humanized-ribosome RFP mutants, fluorescence, 24 h; stronger effect = lower value; DMSO median 0, no signal -100; GFP signal change (wild-type ribosome), % (concentration not given with the values); actives 1.6% (n = 350,000); AID 720706;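 active = significant combined selectivity score with lowered wild-type GFP, culture density cut under 30%, mutant RFP and density less affected; inactive = any of these conditions unmet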; also: one replicate is shown; some compounds called inactive have numbers as strong as hits
# rRNA inh HTS OD600: further read-out of rRNA inh HTS, marked with its call; OD600 change, %; measured here: OD600 growth;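 optical density of the mix in the first replicate; 0 = DMSO median and -100 = no signal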
# rRNA inh HTS RFP: second read-out of rRNA inh HTS, no call of its own (marks repeat the call); RFP signal change, %; measured here: RFP humanized mutant strains;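 first replicate; 0 = DMSO median and -100 = no signal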
# The depositor's hits bear a star; i = inactive; ? = inconclusive; . = not tested or not shown. Only part of the results is shown; the hit share may differ from the screen's.
SMILES,UCH37 inh,MLL AF4-AF9 inh,Beta cell apopt,A1 inh,E coli growth,FGF22 binding,T cruzi inh,rRNA inh HTS,rRNA inh HTS OD600,rRNA inh HTS RFP
Cc1ccccc1CN1CCC(Oc2ccc(C(=O)N3CCCC3)cc2)CC1,0.7,1.1,-2,0.1,0.64,i,17,4,4,0.7
COc1ccccc1NC(=O)CSc1nnc(Cn2nnc(-c3ccccc3)n2)n1-c1ccccc1,2.1,.,-2,1.0,0.71,.,25,.,.,.
Cc1nnc(SCC(=O)Nc2cc(C(F)(F)F)ccc2Cl)n1C,2.9,0.3,-1,0.1,0.67,i,-4,7,9,-0.1
Cc1cc(SCC(=O)c2cccs2)nc2ccccc12,1.0,.,4,2.5,.,.,10,.,.,.
CCNC(=S)N1CCN(c2nc(-c3cccc(OC)c3)cs2)CC1,6.2,2.0,0,0.2,0.71,i,4,-16,-17,1.6
Nc1nnc(SCC(=O)c2ccccc2)s1,-3.7,.,-13,?,0.64,.,-14,.,.,.
Cc1cccc(OC(=O)CN2C(=O)C3C4CCC(C4)C3C2=O)c1C (centres undefined),3.9,.,-5,0.0,0.74,.,-10,.,.,.
NS(=O)(=O)c1ccc(CCNC(=O)c2cnccn2)cc1,-1.2,-6.6,-6,-0.3,0.68,i,4,-1,6,-3.0
CC(C)(C)c1ccc(OCc2nnc(SCC(N)=O)n2N)cc1,0.2,-1.5,-7,0.4,0.66,i,-6,2,4,2.0
Cc1c(NC(=O)C(C)OC(=O)c2cc(-c3cccc4ccccc34)nc3ccccc23)c(=O)n(-c2ccccc2)n1C (centres undefined),-7.5,?,-7,1.2,0.63,i,0,1,13,0.2
O=C(CSc1nnc2scc(-c3ccccc3)n12)NCc1ccc2c(c1)OCO2,3.3,.,-5,0.7,0.69,.,0,.,.,.
COC(=O)c1c(NC(=O)Cc2ccc(OC)c(S(=O)(=O)N3CCOCC3)c2)sc(C)c1C,1.3,?,5,-0.5,0.71,i,39,0,3,-0.8
O=C1C2C3C=CC(C2C(=O)N1C1CCCCC1)C1C2C(=O)N(C4CCCCC4)C(=O)C2C31 (centres undefined),1.3,7.2,-3,0.4,0.71,i,-25,2,9,-2.4
Cc1cc(C(F)(F)F)nc(SCC(=O)c2cccc([N+](=O)[O-])c2)n1,1.4,.,-4,0.3,0.61,.,3,.,.,.
O=C(Nc1cc(C(F)(F)F)ccc1N1CCOCC1)c1cnccn1,0.3,-0.5,-3,-0.4,0.69,i,0,8,18,0.7
CCOC(=O)CSc1nc2ccc(C)cc2[nH]1,0.9,.,-3,-0.6,0.7,.,-12,.,.,.
Cc1ccc(Cn2c(=O)c3ccccc3n3c(CCC(=O)NCCN4CCOCC4)nnc23)cc1,3.7,.,-2,1.0,0.65,.,-8,.,.,.
Cc1ccc(OCCOCCN(C)C)c(Cl)c1,0.6,-62,-5,1.2,0.68,i,34,11,-1,-1.7
O=C(N1CCCC1)C12CC3CC(CC(Cl)(C3)C1)C2,2.7,-1.2,-1,-0.7,0.64,i,-13,1,3,0.4
O=C(Nc1ccc(Oc2ncnc3cc(Cl)ccc23)nc1)Nc1cccc(C(F)(F)F)c1,3.4,-0.6,-1,1.3,0.71,i,5,.,.,.
CC1CN(C(=O)c2cc(S(=O)(=O)N3CCCCC3)ccc2Cl)CC(C)O1 (centres undefined),-2.9,-3.8,-2,0.3,0.68,i,.,7,8,-2.3
CCOC(=O)c1sc2nc(Cc3ccc(Cl)cc3)[nH]c(=S)c2c1C,3.4,0.7,10,0.6,0.65,i,-3,5,6,4.2
CCOc1ccc(-c2nnn(CC(=O)c3ccc4c(c3)OCCO4)n2)cc1,1.7,4.0,-9,-0.5,0.72,i,-9,-8,-7,10
CCOCCCNC(=O)c1ccc(OC(C)=O)cc1,1.2,.,4,0.6,0.7,.,-4,.,.,.
O=c1[nH]c(Cc2cccc(C(F)(F)F)c2)nc2ccccc12,1.7,-1.0,-6,1.7,0.64,i,-16,-1,2,-0.5
# Remaining list, next part
SMILES,UCH37 inh,MLL AF4-AF9 inh,Beta cell apopt,A1 inh,E coli growth,FGF22 binding,T cruzi inh,rRNA inh HTS,rRNA inh HTS OD600,rRNA inh HTS RFP
Clc1ccc(NCc2nncn2-c2ccccc2)cc1,1.5,.,-7,0.3,0.7,.,0,.,.,.
O=C(CCc1nc2ccccc2s1)OCC(=O)c1ccc[nH]1,-0.9,2.3,-6,0.0,0.68,i,-15,-27*,-0.6*,5.3*
CCCC1C(c2ccccc2)C(C#N)(C#N)C2(C#N)CC1(N)NC2=O (centres undefined),-3.6,.,-15,-0.6,0.68,.,-18,.,.,.
Cc1cccc(C2=N/C(=C\c3cccs3)C(=O)O2)c1,8.5,1.3,1,1.9,0.68,i,-6,10,7,-0.8
O=C(Nc1nnc(SCC(=O)N2CCCC2)s1)C1CC(=O)N(c2ccccc2)C1 (centres undefined),3.4,-3.6,-5,0.7,0.72,i,3,1,-5,0.9
COc1cc2c(cc1NC(C)=O)CCCC2,2.6,.,0,0.1,0.73,.,8,.,.,.
COc1cc(C(=O)Nc2nc(N)n(-c3ccccc3)n2)cc(OC)c1OC,0.3,.,-2,-1.1,0.73,.,-4,.,.,.
O/N=C1\CCCc2ccc3ccccc3c21,.,-1.8,-6,0.1,.,i,-3,-38*,-23*,-2.2*
Cc1cccc(C(=O)Oc2csc(=S)n2C(=O)c2cccc(C)c2)c1,2.8,.,-3,-1.1,0.71,.,8,.,.,.
CC1CCN(c2nc3ccccc3nc2C(C#N)C(=O)OC2CCCCC2)CC1 (centres undefined),2.4,.,-4,0.3,0.74,.,7,.,.,.
O=C(CNCc1ccccc1)Nc1ccc(F)cc1,1.0,-2.5,3,-1.3,0.67,i,-3,0,6,1.1
O=C(COc1ccc(Cl)cc1)NNC(=O)c1ccncc1,1.5,0.0,4,0.3,0.65,i,.,5,11,-0.3
COc1ccc(N(CC2CO2)S(=O)(=O)c2ccc(C)cc2)cc1 (centres undefined),3.9,-1.1,-1,0.7,0.7,i,-13,-1,-8,1.1
O=C(Nc1nc2ccccc2n1CCOc1ccc(Cl)cc1)c1ccco1,-10,-5.8,48,-0.2,0.8,i,57*,-48,-72,-11
COc1ccc(OC)c(C2=NS(=O)(=O)N(C)C(C(=O)N3CCC4(CC3)OCCO4)=C2)c1,6.4,1.7,-3,0.2,0.7,i,7,-7,-5,1.7
CC(=O)c1cccc(NC(=O)CN(c2ccccc2F)S(C)(=O)=O)c1,0.9,1.5,-8,-1.1,0.67,i,-10,-7,-9,8.3
Cn1ccnc1SCC(=O)Nc1ccc(Cl)cn1,7.2,-4.6,-2,0.3,0.69,i,-2,3,0,-1.7
CCOC(=O)c1c(N)n(C2CC(C)(C)NC(C)(C)C2)c2nc3ccccc3nc12,i,.,19,0.6,0.69,.,40,.,.,.
Cc1ccc(C2CN(C)C3(C(=O)Nc4ccccc43)C23COc2ccccc2C3=O)cc1 (centres undefined),2.6,.,-9,0.9,0.68,.,27,.,.,.
O=C1NC2(CCCC2)N=C1c1ccc(F)cc1,-0.8,.,-7,0.2,0.71,.,5,.,.,.
CCCc1cc(=O)n2nc(N3CCC(C(=O)Nc4c(F)c(F)c(F)c(F)c4F)CC3)sc2n1,3.3,-2.6,0,0.8,0.69,i,2,13,18,2.0
CCOC(=O)/C(O)=C/c1ncc(C(F)(F)F)cc1Cl,3.0,.,-6,0.2,0.76,.,-4,.,.,.
C=CCn1c(-c2ccc(Cl)cc2)ccc(C#N)c1=O,-4.9,.,-14,0.2,0.65,.,11,.,.,.
Cc1ccc(C#CC(C)(O)C(C)(C)C)cn1 (centres undefined),0.9,-26,-9,0.0,0.69,i,-9,11,10,-0.8
CCOc1ncccc1C(=O)OCC(=O)NCCc1ccccc1,0.9,.,-4,0.7,0.7,.,-1,.,.,.
# Additional entries follow.
SMILES,UCH37 inh,MLL AF4-AF9 inh,Beta cell apopt,A1 inh,E coli growth,FGF22 binding,T cruzi inh,rRNA inh HTS,rRNA inh HTS OD600,rRNA inh HTS RFP
COCCn1c(C)cc(C2=NNC(=Nc3ccccc3F)SC2)c1C,4.0,.,-4,-1.4,0.66,.,4,.,.,.
CC(C)OCCCNC(=O)c1ccc2c(c1)NC(=O)c1ccccc1S2,2.1,1.6,1,0.9,0.67,i,-7,-5,-14,0.7
CN(CC(=O)Nc1ccc(F)cc1)C(=O)COC(=O)/C=C/c1ccc(OC(F)F)cc1,2.0,1.0,-12,0.0,0.67,i,8,8,7,0.2
COc1ccc(S(=O)(=O)Nc2ccc3cn[nH]c3c2)cc1C,0.1,1.0,-2,1.0,0.68,i,-16,-7,-9,1.4
CCOC(=O)c1oc2cc(OC(C)=O)ccc2c(=O)c1-c1ccc(OC)c(OC)c1,9.5,-0.2,0,-0.7,0.62,i,1,-6,4,1.9
O=[N+]([O-])c1cccc(/C=N/NC2CCS(=O)(=O)C2)c1 (centres undefined),.,-0.6,1,-0.5,.,i,3,14,6,-1.3
COc1ccc2[nH]c(-c3ccccc3)cc2c1,-71,-1.3,-1,-7.5,0.63,i,-2,-12,-9,-5.4
CC(C)(C)OC(=O)N1CCN(C(=O)c2[nH]cnc2C(=O)Nc2nccs2)CC1,1.0,-0.2,1,0.5,0.65,i,.,11,0,-2.1
C=CCn1c(SCc2ccc(Br)cc2F)nc2cc(C(=O)O)ccc2c1=O,-11,0.5,3,0.3,0.65,i,1,-51,-80,-20
CC(C)CCSc1nc(N2CCOCC2)c2c(c1C#N)CC(C)(C)OC2,0.3,.,15,.,0.74,.,67*,.,.,.
CCc1ccc(C(=O)C(C)OC(=O)C2COc3ccccc3O2)cc1 (centres undefined),1.0,0.7,3,-0.2,0.69,i,-13,5,8,1.4
O=C(/C=C/c1ccccc1)NCCCNC(=O)/C=C/c1ccccc1,-4.8,3.8,-1,-1.4,0.73,i,10,3,5,0.2
O=C(CCN1CCCC1)Nc1cccc(Br)c1,0.2,.,0,0.4,0.67,.,-20,.,.,.
CC(=O)Nc1nc(C)c(Oc2ccccc2)c(=O)[nH]1,5.2,.,-7,0.5,0.7,.,-1,.,.,.
Cn1c(=O)c2c(ncn2CC(=O)Nc2cc(S(=O)(=O)N3CCCCC3)ccc2O)n(C)c1=O,0.1,0.4,-3,0.4,0.72,i,.,7,13,1.2
Cc1ccc(C(=O)N2CCC3(CC2)Oc2ccc(Cl)cc2C(=O)C32CC(c3ccccc3)=NO2)s1 (centres undefined),-0.5,8.8,-8,-0.4,0.72,i,22,7,11,-4.6
Cc1ccc(C(=O)CC(C(=O)O)n2cnc([N+](=O)[O-])n2)cc1 (centres undefined),1.5,-2.7,.,1.4,0.75,i,33,28,29,3.5
CCOC(=O)N1CCN(CC(=O)Nc2c(C(=O)OC)[nH]c3ccc(Cl)cc23)CC1,-2.0,.,-1,0.6,0.76,.,-16,.,.,.

# Quoted from the listing.
# COCCn1c(C)cc(C2=NNC(=Nc3ccccc3F)SC2)c1C | E coli growth: 0.66
# O=[N+]([O-])c1cccc(/C=N/NC2CCS(=O)(=O)C2)c1 (centres undefined) | T cruzi inh: 3

# Screens as filed in PubChem.
